Compound activity deposited in PubChem BioAssay by several laboratories.
Yeast UUG start: modulators of yeast start codon fidelity, primary screen, whole organism, S. cerevisiae, single point, plate reader | S. cerevisiae UUG-firefly luciferase reporter, luminescence/redox ratio | activity score, % at 18.7 µM | 350,000 compounds, 0.13% hits | AID 602363, 2012;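 active = replicate mean at a twofold rise or more, about +100% in these data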;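 also: firefly luciferase made from a UUG start codon reports start codon fidelity; reporter light over untreated wells divided by growth signal over untreated wells; some hits fall short of that in this replicate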
CSC inhib: cancer stem cell viability inhibitors, primary screen, luminescence; inhibition, % at 7.5 µM; 300,000 compounds, 1.1% hits; AID 2717, 2010; cancer stem cell-like cells viability;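 active = mean at 75% or more and at least half the replicates too; tested in HMLE shEcad cells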;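 also: 0% = median of negative and 100% = median of positive control wells; the first replicate is given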
MT1-MMP act inh: blockers of MT1-MMP proenzyme processing, primary screen, HT1080 RFP-PRO-GFP cells, GFP/RFP fluorescence; GFP/RFP ratio fluorescence, overnight; percent of plate control window, DMSO zero; Matrix metalloproteinase-14 (Homo sapiens), P50281; 360,000 compounds, 0.061% hits; AID 651647, 2012; GFP/RFP ratio change, % at 20 µM;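 active = GFP/RFP ratio change of at least 30% with cell ATP level not reduced by more than half and red fluorescence within 50% of control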; also: strong numbers were not always called active
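Assay system: HT1080 RFP-PRO-GFP cells. Benchmarks: DMSO vehicle wells and RFP-L50D-GFP reporter cell wells. Times: overnight cell settling, then overnight compound exposure, 37 °C, 5% CO2. Compound: 20 µM single dose, 1% DMSO. Read-out basis: GFP/RFP fluorescence ratio.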
PABP FP inh: PABP poly(A) RNA binding inhibitors, primary screen, biochemical, fluorescence polarization, uHTS. Polyadenylate-binding protein 1 (Homo sapiens), P11940. inhibition, % at 35 µM. 290,000 compounds, 1% hits;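 active = 50% or more with normal probe brightness, or confirmed in later tests; about a fifth of its hits are not listed in these tables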;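 also: calls also rest on retests at 20 µM and on dose response follow-up; controls were probe without protein and protein plus probe with vehicle; some compounds called inactive have numbers as strong as hits; many hits fall short of the cut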
eIF4H FP inh: human eIF4H binding inhibitors, primary screen, translation initiation inhibitor project, biochemical, uHTS, fluorescence polarization; Eukaryotic translation initiation factor 4H (Homo sapiens), Q15056; 290,000 compounds, 0.94% hits; inhibition, % at 35 µM; AID 2012, 2009; eIF4H fluorescence polarization binding assay;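 active = 50% or more with normal probe brightness, or confirmed in later tests; about a fifth of its hits are not listed in these tables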;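 also: calls also rest on retests at 20 µM and on dose response follow-up; 0% = protein and probe with vehicle and 100% = probe without protein; strong numbers were not always called active; many hits fall short of the cut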
Env fusion inh: inhibitors of HIV-1 Env-driven cell-cell fusion, primary screen, HeLa-JRFL effector, CEM21 target cells, luciferase. inhibition, % at 12.3 µM. 360,000 compounds, 1.1% hits. AID 651610, 2012;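 active = mean replicate inhibition score of at least 50 and every replicate individually at or above 50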;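 also: 0% = plate neutral controls and 100% = maraviroc near 300 nM; one replicate is shown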
Rce1 inhib: yeast Rce1p protease inhibitors, primary screen, biochemical, fluorescence, cell-free homogeneous. CAAX prenyl protease 2 (Saccharomyces cerevisiae (strain ATCC 204508 / S288c)), Q03530. yeast membranes, quenched prenylated peptide cleavage fluorescence. calls only. 290,000 compounds, 0.27% hits. AID 2563, 2010;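 active = fall in fluorescence gain of 50% or more versus controls, with final raw signal at or below 3038400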;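 also: plate controls were neutral control wells for no effect and wells lacking membranes for full effect; tested at 10 µM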
Target sequence (Q03530 whole entry, looked up): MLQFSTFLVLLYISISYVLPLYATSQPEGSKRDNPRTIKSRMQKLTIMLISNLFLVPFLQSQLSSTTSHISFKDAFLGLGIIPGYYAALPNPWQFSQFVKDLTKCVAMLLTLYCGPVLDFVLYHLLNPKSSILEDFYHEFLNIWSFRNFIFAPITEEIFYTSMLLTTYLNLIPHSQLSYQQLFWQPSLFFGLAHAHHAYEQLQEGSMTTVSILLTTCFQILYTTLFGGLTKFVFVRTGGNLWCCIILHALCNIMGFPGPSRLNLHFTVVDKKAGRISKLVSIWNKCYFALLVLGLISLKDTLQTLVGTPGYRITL
MT1-MMP act inh RFP: also measured in MT1-MMP act inh; calls as there; RFP signal change, %; measured here: RFP expression control read;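 0 = vehicle wells; hits needed this value within 50% of zero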
* hit, by the source's call. No enrichment for hits; 2.9% or so of the library scored in one or more.

Cc1nc(CSc2n[nH]c(=O)n2-c2cccc(F)c2)cs1 was read as Yeast UUG start -19.2, CSC inhib -7.6, MT1-MMP act inh -1.9, PABP FP inh -3.6, eIF4H FP inh -10.6, Env fusion inh 16.3, Rce1 inhib inactive and MT1-MMP act inh RFP 0.5.
`Cc1ccc(-c2nc(-c3cccnc3)sc2CC(=O)Nc2ccc3nc(C)sc3c2)cc1` gave Yeast UUG start -22.7, CSC inhib -37.8, MT1-MMP act inh -5.1, PABP FP inh 0.2, eIF4H FP inh -9.2, Env fusion inh 24.4, Rce1 inhib inactive and MT1-MMP act inh RFP -5.4.
For O=C(C(=O)N1CCOCC1)c1cn(CC(=O)N2CCc3ccccc3C2)c2ccccc12 the results were Yeast UUG start -3.6, CSC inhib -8.2, MT1-MMP act inh -3.3, PABP FP inh 10.7, eIF4H FP inh -9.5, Env fusion inh -10.0, Rce1 inhib inactive and MT1-MMP act inh RFP -0.4.
Screening O=C(CCCCn1cnc2c(=S)nc[nH]c21)Nc1ccc(C(=O)O)c(O)c1 returned Yeast UUG start -19.2, MT1-MMP act inh -1.5, Env fusion inh 8.1 and MT1-MMP act inh RFP 1.5.
For Cc1ccc(NS(=O)(=O)c2c(C(=O)N3CCCC3)c(C)n(C)c2C)cc1 the results were Yeast UUG start -3.5, CSC inhib -7.1, MT1-MMP act inh 0.6, PABP FP inh 1.1, eIF4H FP inh -5.0, Env fusion inh -2.4, Rce1 inhib inactive and MT1-MMP act inh RFP 1.8.
Screening O=C(NCc1ccccc1)c1ccc[n+]([O-])c1 returned Yeast UUG start 2.4, CSC inhib -17.7, MT1-MMP act inh 1.4, PABP FP inh -9.1, eIF4H FP inh 9.1, Env fusion inh -5.9, Rce1 inhib inactive and MT1-MMP act inh RFP -1.2.
Screening Cc1ccc(C(=O)N2CCC3(CC2)NCCc2[nH]cnc23)cc1C returned Yeast UUG start -11.0, CSC inhib -13.6, MT1-MMP act inh -0.1, Env fusion inh -7.3, Rce1 inhib inactive and MT1-MMP act inh RFP 1.4.
O=C(Nc1nccs1)C1C2CC3OC(=O)C1C3C2 (stereo unspecified) was read as Yeast UUG start -20.9, CSC inhib -9.5, MT1-MMP act inh 0.1, PABP FP inh -1.1, eIF4H FP inh 3.0, Rce1 inhib inactive and MT1-MMP act inh RFP 3.6.
For CCNC(=O)C1(C)CCCN(C(=O)c2sccc2C)C1 (stereo unspecified) the results were Yeast UUG start -4.1, MT1-MMP act inh 12.2, Env fusion inh -6.8 and MT1-MMP act inh RFP 11.5.
Screening O=C(NNC(=O)c1nn(-c2ccc(F)cc2)ccc1=O)c1ccc(C(F)(F)F)cc1 returned CSC inhib 6.9, MT1-MMP act inh 1.4, PABP FP inh 9.6, eIF4H FP inh 0.1, Env fusion inh -1.1, Rce1 inhib inactive and MT1-MMP act inh RFP 1.4.
`CC[C@@H](NC(=O)[C@H](Cc1ccccc1)NC(=O)CC[C@H]1O[C@@H](n2ccc(=O)[nH]c2=O)[C@H](O)[C@@H]1O)c1ccccc1` gave Yeast UUG start 3.7, MT1-MMP act inh 1.9, Env fusion inh 8.3 and MT1-MMP act inh RFP 2.6.
Screening Oc1[nH]c2ccc(Br)cc2c1N=Nc1ccc(C(F)(F)F)cn1 returned Yeast UUG start -17.4, CSC inhib 32.2, MT1-MMP act inh -2.0, PABP FP inh -4.7, eIF4H FP inh -1.7, Env fusion inh 3.2, Rce1 inhib inactive and MT1-MMP act inh RFP -2.9.
`Cc1c(NC(=O)Cn2nc(C(F)(F)F)c3c2CCCC3)c(=O)n(-c2ccccc2)n1C` gave Yeast UUG start 16.1, CSC inhib -9.0, MT1-MMP act inh 2.4, PABP FP inh -6.0, eIF4H FP inh 2.0, Rce1 inhib inactive and MT1-MMP act inh RFP 0.0.
COC(=O)c1c(-c2c(Cl)cccc2Cl)noc1NC(=O)NN1CCCCC1 was read as Yeast UUG start 4.7, CSC inhib -13.1, MT1-MMP act inh 3.1, PABP FP inh -1.3, eIF4H FP inh 0.2, Env fusion inh 22.6, Rce1 inhib inactive and MT1-MMP act inh RFP -8.3.
`O=C(NCCc1ccc(F)cc1)Nc1ccccc1` gave Yeast UUG start -18.4, MT1-MMP act inh 5.8, PABP FP inh 1.7, eIF4H FP inh -3.5, Env fusion inh -54.7, Rce1 inhib inactive and MT1-MMP act inh RFP 1.4.
For CCN(c1ccccc1)S(=O)(=O)c1ccc(Cl)c(NC(=O)CSc2nc(N)cc(=O)[nH]2)c1 the results were Yeast UUG start -8.4, MT1-MMP act inh 5.9, Env fusion inh 15.4 and MT1-MMP act inh RFP -3.3.
CCCC[n+]1ccn(-c2nc3ccccc3nc2[N-]S(=O)(=O)c2ccc(Cl)cc2)c1 was read as CSC inhib -12.2, MT1-MMP act inh -0.2, PABP FP inh 10.4, eIF4H FP inh -5.6, Env fusion inh 14.4, Rce1 inhib inactive and MT1-MMP act inh RFP 0.8.
Screening O=C(NCc1ccc2c(c1)OCO2)c1cc2ccccc2o1 returned Yeast UUG start -2.9, CSC inhib -11.8, MT1-MMP act inh 3.5, PABP FP inh -10.6, eIF4H FP inh -1.7, Env fusion inh -6.5, Rce1 inhib inactive and MT1-MMP act inh RFP 3.6.
O=C(NC1CC1)c1cc2c(s1)-c1ccccc1OC2 was read as Yeast UUG start -6.9, CSC inhib -7.3, MT1-MMP act inh -12.1, PABP FP inh -0.2, eIF4H FP inh 1.3, Env fusion inh 13.3, Rce1 inhib inactive and MT1-MMP act inh RFP -26.4.
Screening Cc1ccc(N(C(=O)c2csnn2)C(C(=O)NC2CCCCC2)c2ccncc2)cc1 (stereo unspecified) returned Yeast UUG start -17.9, CSC inhib -1.8, MT1-MMP act inh 0.9, PABP FP inh 4.4, eIF4H FP inh -4.0, Env fusion inh 14.0, Rce1 inhib inactive and MT1-MMP act inh RFP 4.8.
`COc1ccc(NC(=O)c2sc(=O)n(Cc3ccc(S(=O)(=O)N(C)C)cc3)c2C)cc1` gave Yeast UUG start 0.8, MT1-MMP act inh -6.5, Env fusion inh 7.9 and MT1-MMP act inh RFP -7.2.
For Cc1cc(=O)oc2cc(OCC(=O)Nc3ccc(F)cc3F)ccc12 the results were Yeast UUG start -16.4, MT1-MMP act inh -0.6, Env fusion inh -21.6 and MT1-MMP act inh RFP -0.9.
COc1ccc(CCN(Cc2nc3ccccc3c(=O)[nH]2)C(=O)C2CC2)cc1 was read as Yeast UUG start 11.1, CSC inhib -5.2, MT1-MMP act inh 1.3, PABP FP inh -8.3, eIF4H FP inh -2.8, Env fusion inh 15.8, Rce1 inhib inactive and MT1-MMP act inh RFP -7.6.
Screening CCOC(=O)C1CCN(C(=O)c2ccc(N(C)S(C)(=O)=O)cc2)CC1 returned Yeast UUG start -15.0, CSC inhib -14.1, MT1-MMP act inh 0.2, PABP FP inh -5.9, eIF4H FP inh -5.2, Rce1 inhib inactive and MT1-MMP act inh RFP 4.4.
For O=C(CN1C(=O)C(=O)N(C2CCCC2)C1=O)Nc1cc(Cl)ccc1[N+](=O)[O-] the results were Yeast UUG start -10.9, CSC inhib -17.1, MT1-MMP act inh -0.8, Env fusion inh -4.7 and MT1-MMP act inh RFP 2.4.
`Cc1cccc(NC(=S)N2CCN(S(=O)(=O)c3ccc(F)cc3)CC2)c1` gave Yeast UUG start -26.2, CSC inhib -0.8, MT1-MMP act inh 0.0, PABP FP inh -2.6, eIF4H FP inh -3.3, Env fusion inh 10.2, Rce1 inhib inactive and MT1-MMP act inh RFP 3.3.
Screening CN(CCOc1ccccc1)CC(=O)Nc1ccc([N+](=O)[O-])cc1Cl returned CSC inhib 1.1, MT1-MMP act inh -3.7, PABP FP inh -8.5, eIF4H FP inh 5.4, Env fusion inh 19.1, Rce1 inhib inactive and MT1-MMP act inh RFP -1.3.
Screening Cc1nn(Cc2ccccc2)c(Cl)c1C(=O)OCC#N returned Yeast UUG start -14.4, MT1-MMP act inh 3.3, PABP FP inh 10.0, eIF4H FP inh -8.1, Env fusion inh 7.7, Rce1 inhib inactive and MT1-MMP act inh RFP 3.4.
Screening CCN(CC)S(=O)(=O)c1ccc(NC(=O)CNC2CCCCC2)cc1 returned Yeast UUG start 0.6, CSC inhib 15.9, MT1-MMP act inh -1.6, PABP FP inh 1.5, eIF4H FP inh -3.2, Env fusion inh 5.8, Rce1 inhib inactive and MT1-MMP act inh RFP 1.2.
Screening Cc1[nH]c2ccc(Cl)cc2c(=O)c1CN1CCCC1 returned Yeast UUG start -6.8, MT1-MMP act inh 1.2, PABP FP inh 9.0, eIF4H FP inh -3.4, Env fusion inh 0.4, Rce1 inhib inactive and MT1-MMP act inh RFP 6.0.
Screening COc1cc2c(NCCCCCO)ncnc2c(OC)c1OC returned Yeast UUG start 1.7, MT1-MMP act inh -0.4, Env fusion inh -6.9 and MT1-MMP act inh RFP 0.7.
CS(=O)(=O)c1cccc(-c2nnc(NC(=O)c3ccc4ncsc4c3)o2)c1 was read as CSC inhib -8.4, MT1-MMP act inh -0.7, Env fusion inh 7.7, Rce1 inhib inactive and MT1-MMP act inh RFP 2.0.
`O=C1NC(C(F)(F)F)(C(F)(F)F)N=C2SC=CN12` gave Yeast UUG start -14.0, CSC inhib -6.6, MT1-MMP act inh -0.3, PABP FP inh -2.8, eIF4H FP inh -8.1, Env fusion inh 8.3, Rce1 inhib inactive and MT1-MMP act inh RFP 4.5.
For O=C(C1=C[C@H](c2coc3ccccc3c2=O)C[C@H](OCCCCO)O1)N1CCN(Cc2ccc3c(c2)OCO3)CC1 the results were Yeast UUG start -7.8, CSC inhib -10.2, MT1-MMP act inh -2.6, PABP FP inh -12.1, eIF4H FP inh -5.7, Env fusion inh 13.0, Rce1 inhib inactive and MT1-MMP act inh RFP 1.3.
COc1ccc(CC2(CO)CCN(S(=O)(=O)c3sccc3C)CC2)cc1 was read as CSC inhib -8.7, MT1-MMP act inh -0.7, PABP FP inh -0.1, eIF4H FP inh -13.8, Env fusion inh 3.0, Rce1 inhib inactive and MT1-MMP act inh RFP -7.0.
O=C(O)C[C@]1(C(=O)Nc2ccc(F)cc2)CC(/C=C/c2ccccc2)=NO1 was read as Yeast UUG start 0.7, CSC inhib -17.6, MT1-MMP act inh 4.3, PABP FP inh -9.4, eIF4H FP inh -2.2, Env fusion inh -0.5, Rce1 inhib inactive and MT1-MMP act inh RFP 7.1.
For COc1cc(C(=O)NCCNc2nc3ccc(C)cc3cc2C#N)cc(OC)c1OC the results were Yeast UUG start -9.5, CSC inhib -15.8, MT1-MMP act inh -1.4, PABP FP inh -11.0, eIF4H FP inh 3.6, Env fusion inh 18.4, Rce1 inhib inactive and MT1-MMP act inh RFP 0.0.
CCN(CC)S(=O)(=O)c1ccc(C)c(C(=O)Oc2cccc(-c3cnc4ccccc4n3)c2)c1 was read as Yeast UUG start -16.6, CSC inhib 0.2, MT1-MMP act inh -3.9, PABP FP inh -3.5, eIF4H FP inh -7.1, Env fusion inh -4.5 and MT1-MMP act inh RFP -10.1.
Cc1cccc(-c2nnc(NC(=O)c3ccc(Cl)cc3)o2)c1 was read as Yeast UUG start -19.1, CSC inhib 89.1*, MT1-MMP act inh 9.2, PABP FP inh 6.0, eIF4H FP inh 13.1, Env fusion inh -43.3, Rce1 inhib inactive and MT1-MMP act inh RFP 3.8.
